Screening data (PubChem BioAssay)
RGS16-Gao HTS: RGS16-Galphao interaction regulator (human); O15492+P09471; AID 1441; 220,000 compounds, 0.38% hits; binding response (% of control), % at 10 µM; bead-based flow cytometry RGS16-Galphao binding, fluorescence; actives lie on both sides;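 active = below 25% or above 175%, edge rows of some plates excepted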;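 note: Galphao activated by GDP with aluminum fluoride before binding; 100% = wells without compound and 0% = beads without RGS; some results beyond the cut were filed as inactive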
HSV replic up: increases HSV replication in cells. maximum fold increase. AID 1956. HSV replication augmentation in cells, fold increase. 220,000 compounds, 0.005% hits;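 active = peak rise of 1.5-fold or more in the series; tested in PC3 cells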;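 note: first round at 10 µM; read as green reporter fluorescence; hits show the peak of a series up to 25 µM; 1 = signal of infected wells without compound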
GALR2 ag: activates the human galanin receptor 2. O43603. GALR2-expressing cells, agonist activation read-out. activation, %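 (tested at 5 µM)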. 140,000 compounds, 0.48% hits. AID 803;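 active = above mean plus 3 SD of all compounds, about 5% in these data, not always enough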;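 note: 0% = vehicle buffer wells and 100% = reference agonist at full effect; tested in CHO reporter cells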
PKD1 kinase inh: PKD1 (human) kinase inhibition | Q15139 | PKD1 kinase fluorescence polarization assay | inhibition, %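 (about 10 µM by stock and volumes)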 | 200,000 compounds, 0.056% hits;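 active = inhibition of 50% or more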;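 note: controls were vehicle for no effect and a reference inhibitor for full effect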
Target sequence (Q15139 whole entry, looked up): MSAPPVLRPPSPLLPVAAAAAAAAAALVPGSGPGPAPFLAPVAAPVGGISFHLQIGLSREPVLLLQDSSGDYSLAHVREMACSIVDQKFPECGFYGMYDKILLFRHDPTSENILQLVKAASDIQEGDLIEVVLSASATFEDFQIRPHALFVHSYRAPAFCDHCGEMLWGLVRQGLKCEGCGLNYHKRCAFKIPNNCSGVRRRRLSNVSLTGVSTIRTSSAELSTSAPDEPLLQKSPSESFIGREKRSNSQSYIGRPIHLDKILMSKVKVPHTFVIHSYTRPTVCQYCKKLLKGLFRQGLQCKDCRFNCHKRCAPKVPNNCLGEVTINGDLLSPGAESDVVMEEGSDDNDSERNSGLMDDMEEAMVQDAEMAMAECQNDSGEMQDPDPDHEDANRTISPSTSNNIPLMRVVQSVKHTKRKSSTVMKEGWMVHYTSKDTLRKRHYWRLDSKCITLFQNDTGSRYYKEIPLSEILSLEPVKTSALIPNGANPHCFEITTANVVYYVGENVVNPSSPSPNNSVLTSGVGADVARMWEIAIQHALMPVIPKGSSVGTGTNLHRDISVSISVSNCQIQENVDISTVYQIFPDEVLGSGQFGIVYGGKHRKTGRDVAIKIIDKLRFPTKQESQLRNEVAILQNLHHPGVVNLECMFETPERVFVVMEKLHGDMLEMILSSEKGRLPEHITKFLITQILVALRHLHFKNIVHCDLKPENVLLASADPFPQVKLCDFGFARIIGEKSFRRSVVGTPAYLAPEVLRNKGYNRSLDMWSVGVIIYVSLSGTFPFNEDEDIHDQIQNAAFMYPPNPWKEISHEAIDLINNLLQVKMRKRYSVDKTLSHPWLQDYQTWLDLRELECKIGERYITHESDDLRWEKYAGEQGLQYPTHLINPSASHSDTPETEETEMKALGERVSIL
Insulin prom inh: TRM-6 insulin promoter activity inhibition. TRM-6 cells (human fetal islet line), insulin promoter-eGFP reporter, imaging; reporter expression induced with tamoxifen. inhibition, % at 2 µM. 130,000 compounds, 0.9% hits. AID 1273;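 active = inhibition above the mean plus 3 SD, with well images judged a real hit on visual review, cut at about 60% in these data, passing the limit was not always enough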
Insulin prom inh cell count: second read-out of Insulin prom inh, no call of its own (marks repeat the call); normalized cell count, %; measured here: cell count, toxicity; reference of the scale not given here;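 cells exposed to compound for 48 h; stained nuclei by imaging scaled within each plate; lower means fewer cells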
HSV replic up primary fold: also measured in HSV replic up; calls as there; fold increase; compound at 10 µM; measured here: primary screen fold increase 10 uM; tested in PC3 cells;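 GFP signal in the first replicate; 1 = infected wells without compound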
* marks the source's active call; other numbers are inactive results; i = inactive; . = not tested or not shown. Compounds were not picked by outcome. Share with any hit: about 1.2%.

SMILES	RGS16-Gao HTS	HSV replic up	HSV replic up primary fold	GALR2 ag	PKD1 kinase inh	Insulin prom inh	Insulin prom inh cell count
CCOC(=O)Cn1cc(/C=N/NC(=O)c2cc3ccccc3o2)c2ccccc21	99.4	i	0.93	.	.	.	.
CCCCNc1cnn(-c2ccccc2)c(=O)c1Cl	101.1	i	0.93	.	-3.2	.	.
CCCCOC(=O)c1ccc(NS(=O)(=O)c2cc(-c3nnnn3CC)ccc2OC)cc1	89.4	i	0.84	0.7	-13.4	.	.
O=C(Nc1ccc(S(=O)(=O)N2CCCCC2)cc1)c1cnccn1	110.6	i	0.97	-1.9	-6.5	.	.
CN(C)c1ccc(/C=N/N=C2/SC(CC(=O)O)C(=O)N2c2ccc(O)cc2)cc1 (stereo unspecified)	98.2	i	0.96	.	-8.2	-41.7	121.0
CC(=O)Nc1cccc(/C(C)=N/NC(=O)c2ccc3c(c2)OCO3)c1	96.3	i	1.06	.	-2.7	.	.
Cc1cc(-c2nn(-c3ccccc3F)cc2CN2CCCC(CO)C2)c(C)s1 (stereo unspecified)	97.1	i	0.93	.	3.6	14.3	100.7
O=C(CN1C(=O)CSC1=O)N1CCc2ccccc2C1	105.3	i	1.01	-2.9	0.6	45.0	143.8
COc1ccc([N+](=O)[O-])cc1NC(=O)C(C)c1ccccc1 (stereo unspecified)	101.2	i	0.72	-1.8	-5.2	21.9	144.8
Cc1ccccc1/C=C/C12NC(=O)CN1c1ccccc1C2(C)C (stereo unspecified)	102.1	i	0.95	.	.	.	.
COc1cc(C(=O)N2CCN(C(=O)c3ccco3)CC2)cc(OC)c1OC	67.0	i	0.89	-2.3	-3.7	42.9	116.3
Nc1ncnc(Nc2cc(C(F)(F)F)cc(C(F)(F)F)c2)n1	98.7	i	0.97	.	.	.	.
CCCOC(=O)c1ccc(NC(=O)c2cc(OC)c(OC)c(OC)c2Br)cc1	39.2	i	0.82	-3.6	-8.7	0.0	138.8
COc1ccc(NC(=O)CN2C(=O)c3cccc4cccc2c34)c(OC)c1	97.5	i	0.85	-1.3	1.1	14.3	191.0
COc1cc2ncnc(NCCCN3CCOCC3)c2cc1OC	102.9	i	0.93	.	.	.	.
Cc1oc2ccc(NS(=O)(=O)c3ccccc3)cc2c1C(=O)Nc1ccccc1	100.0	i	1	-0.1	-4.4	3.3	110.3
Cc1cccc(CC(C)NC(=O)CCc2nnc(-c3ccccc3)o2)n1 (stereo unspecified)	100.5	i	0.97	.	-1.5	.	.
Cc1nc(S(=O)(=O)c2ccc(Cl)cc2Cl)nc2c1CCC2	106.9	i	0.97	-2.5	5.7	-36.7	104.8
CCOC(=O)c1ccc(-n2c(CC)nc3ccccc3c2=O)cc1	109.4	i	1.02	.	-3.1	-107.1	16.5
Cc1cccc(OCc2nnc(N)s2)c1C	101.8	i	1.05	-0.2	13.5	-32.6	181.7
CC(NC(=O)c1cccc(S(=O)(=O)N2CCN(C)CC2)c1)C1CC2CCC1C2 (stereo unspecified)	103.5	i	0.89	.	-7.1	.	.
COCCC(=O)N1CCCC(CCC(=O)NCc2ccc(F)c(F)c2)C1 (stereo unspecified)	105.3	i	1.03	.	3.0	.	.
O=C1CSC(=S)N1/N=C/c1ccc(Cl)c([N+](=O)[O-])c1	100.8	i	0.92	.	.	.	.
Cc1ccc2nc(-c3ccc(NC(=O)COCC(=O)O)cc3)sc2c1	102.5	i	0.97	.	.	.	.
COc1ccc(Nc2nc(N)nc(CSc3nccc(C)n3)n2)cc1	102.6	i	0.89	-1.4	-4.0	-14.3	79.4
C/C=C\C=C/C(=O)Nc1cccc(C2=NOC3(C2)C[C@@H](C(N)=O)N(C(=O)C2(C)CC2)C3)c1 (stereo partly specified)	98.5	i	1.05	.	.	.	.
Cc1ccc(S(=O)(=O)N2CCCC(C(=O)NC3=NCCS3)C2)cc1 (stereo unspecified)	97.9	i	1.01	-1.3	4.3	-6.5	81.4
O=S(=O)(c1cccc2cccnc12)N(CCO)CCO	108.7	i	0.95	-1.5	-10.1	.	.
O=S1(=O)CC/C(=N/Nc2ccccn2)c2cc(F)ccc21	101.2	i	1.01	.	.	.	.
CC(NC(=O)c1ccc(C(F)(F)F)cc1)C(c1ccccc1)N1CCOCC1 (stereo unspecified)	106.5	i	0.77	.	-6.4	.	.
C/C(=N\NC(=O)CN1CCN(Cc2ccc(C)cc2)CC1)c1ccncc1	100.1	i	0.99	-0.7	-2.5	.	.
CCCCc1n[nH]c2c1/C(=N/OCC)CC(C)(C)C2	101.4	i	0.89	.	.	.	.
CCC(=O)Nc1cccc(-n2nnnc2SCC(=O)N(C(C)C)C(C)C)c1	102.2	i	1.02	.	-3.7	-22.2	123.6
O=C(O)CCCNC(=O)CCn1nnc2ccccc2c1=O	101.9	i	0.9	.	.	.	.
COc1ccc(CCNC(=O)c2ccccc2Cl)cc1OC	104.6	i	0.95	.	-0.2	.	.
c1ccc(Cn2nnc3c(NCCN4CCOCC4)ncnc32)cc1	137.1	i	0.98	-1.6	1.1	.	.
O=C(NC1CCOC1)c1ccc(OC2CCN(CCc3ccccc3)CC2)cc1 (stereo unspecified)	111.8	i	1.11	.	0.3	.	.
C=C(C)Cn1cnc2cc(C)c(C)cc21	98.5	i	0.98	.	-1.6	.	.
Oc1cccc(/C=N/c2c(-c3ccco3)nc3ccccn23)c1	98.3	i	1.08	-0.4	8.3	.	.
COC(=O)c1coc(-c2ccc(OC)cc2)c1C(=O)OC	102.3	i	0.89	-0.6	8.2	0.0	100.0
CC(=O)c1cccc(NC(=O)c2noc3c2CCc2ccccc2-3)c1	102.0	i	0.93	.	-4.8	.	.
CN1CCC(N(C)C(=S)NC(=O)C23CC4CC(CC(C4)C2)C3)CC1	98.8	i	1.12	0.2	0.1	.	.
CC1(C)C2CCC13CS(=O)(=O)N[C@@H]3C2 (stereo partly specified)	104.9	i	0.64	-2.1	-6.6	.	.
O=C(COc1ccc([N+](=O)[O-])cc1)NCCc1nc2ccccc2[nH]1	101.7	i	0.92	.	.	.	.
CCOC(=O)c1nc(Nc2cc(C)cc(C)c2)c2ccccc2n1	99.7	i	1.03	.	2.0	52.6	104.8
O=C(/C=C/c1ccc(Cl)c([N+](=O)[O-])c1)NCc1cccnc1	.	i	1.04	-1.8	9.4	9.1	146.7
CCOc1ccc(C(C)(C)C)cc1S(=O)(=O)n1nc(C)cc1C	101.8	i	1	-2.2	-3.5	-21.1	93.8
COC(=O)NC(Nc1sc2c(c1C(N)=O)CCCC2)(C(=O)OC)C(F)(F)F (stereo unspecified)	94.2	i	0.86	-1.0	-3.2	6.1	138.0
COc1ccc(CN2CCn3ncc(C(=O)Nc4cccc(C)c4)c3C2=O)cc1	84.0	i	0.82	0.9	-6.3	10.8	61.4
O=c1[nH]nc(N2CCOCC2)c(=O)[nH]1	105.6	i	0.94	.	.	.	.
(continued)
SMILES	RGS16-Gao HTS	HSV replic up	HSV replic up primary fold	GALR2 ag	PKD1 kinase inh	Insulin prom inh	Insulin prom inh cell count
Cc1cnc(C(=O)Nc2ccc(F)cc2)cn1	102.2	i	0.58	-4.7	-5.5	13.9	81.4
COc1cc(/C=N/n2c(-c3ccccc3)n[nH]c2=S)ccc1O	96.6	i	0.75	.	.	.	.
COC(=O)C(Cc1ccc(OC(=O)c2ccc(C)cc2)cc1)N1Cc2ccccc2C1=O (stereo unspecified)	102.1	i	1.08	-1.1	-12.1	10.7	116.9
CCN1CCN(C(=S)Nc2cccc(C(F)(F)F)c2)CC1	73.0	i	0.94	-2.3	5.6	-13.3	62.8
CCOC(=O)C(C)Sc1nnc(-c2ccccc2O)n1Cc1ccccc1 (stereo unspecified)	-134.3	i	0.99	-2.8	8.8	3.2	70.8
O=c1c(C=NCc2ccccc2)c(NCc2ccccc2)nc2ccccn12	103.5	i	0.92	.	-4.5	.	.
CCc1c(C)c2cc(Cl)c(O)c(CN3CCCCC3)c2oc1=O	109.1	i	0.83	2.3	1.2	.	.
O=c1cc(CN2CCN(CCO)CC2)c2cc3c(cc2o1)CCC3	100.9	i	0.93	2.4	0.0	57.1	59.9
COc1ccc(NS(=O)(=O)c2ccc(NC(=O)CCNS(=O)(=O)c3ccc(C)cc3)cc2)cc1	110.3	i	0.88	0.6	-2.4	-14.3	80.2
Cc1cc2cc(CNC(=O)c3ccc4c(c3)OCO4)ccc2[nH]1	.	i	1.17	-3.5	-5.7	10.0	106.0
O=C(CC1CCS(=O)(=O)C1)NC1CCCCC1 (stereo unspecified)	98.6	i	0.96	-0.5	3.0	-50.0	70.8
CCC1=NN2C(=N)/C(=C\c3cccn3-c3ccc(Br)cc3)C(=O)N=C2S1	98.2	i	0.99	.	5.0	-25.0	71.3
Clc1ccc(OCCn2ccnc2)c(Cl)c1	102.8	i	0.94	-1.8	-6.0	-100.0	118.4
O=C(Cc1ccccc1Cl)Nc1cccnc1	104.7	i	0.98	.	1.9	.	.
O=C1OC(/C(=C\Nc2cc(Cl)ccc2O)[N+](=O)[O-])c2ccccc21 (stereo unspecified)	98.7	i	0.84	.	-1.1	.	.
COC(=O)/C(C#N)=C/c1c(Oc2cc(C)cc(C)c2)nc2c(C)cccn2c1=O	99.1	i	0.99	1.0	0.6	-16.2	108.6
CC(NC(=O)C(C)(C)C)C(c1cccs1)N1CCN(Cc2ccccc2)CC1 (stereo unspecified)	102.4	i	0.99	.	.	.	.
CC1CCN(c2ccc(C(F)(F)F)cc2N)CC1	99.5	i	1.04	.	-6.4	.	.
Cc1cc(C)cc(C(=O)NCC(=O)OCc2c(C)noc2C)c1	1.9*	i	0.93	-1.3	7.8	0.0	120.9
CCCCCOc1ccc(CSC(=N)N)cc1[N+](=O)[O-]	43.3	i	0.41	1.9	-2.3	-23.3	84.4
Cn1nnnc1SCc1ccc(Cl)cc1	103.6	i	1.04	.	-2.1	.	.
COC(=O)c1sc(NC(=O)CC(C)C)c(C(=O)OC)c1C	95.9	i	0.88	-1.5	0.1	-12.7	105.8
